# TRPML1 blocker: human mucolipin-1 channel inhibition; activity change, negative = inhibition, % (test concentration not listed); 390,000 compounds, 0.02% hits; Q9GZU1; AID 624415; TRPML1-inducible cells, Ca2+ dye fluorescence, FDSS; stronger effect = lower value; inhibition of EC80 agonist-evoked calcium signal; in the data active means activity change below about -50%; inconclusive means about -30% to -50%; inactive means above about -30%;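 further: stimulus is agonist 54-4 at its EC80 concentration; on the % scale 0 is the no-effect control and ±100 the full control effect; compound concentration not given in the record; the text of the record puts the active cut at -80%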
# Target sequence (Q9GZU1 whole entry, looked up): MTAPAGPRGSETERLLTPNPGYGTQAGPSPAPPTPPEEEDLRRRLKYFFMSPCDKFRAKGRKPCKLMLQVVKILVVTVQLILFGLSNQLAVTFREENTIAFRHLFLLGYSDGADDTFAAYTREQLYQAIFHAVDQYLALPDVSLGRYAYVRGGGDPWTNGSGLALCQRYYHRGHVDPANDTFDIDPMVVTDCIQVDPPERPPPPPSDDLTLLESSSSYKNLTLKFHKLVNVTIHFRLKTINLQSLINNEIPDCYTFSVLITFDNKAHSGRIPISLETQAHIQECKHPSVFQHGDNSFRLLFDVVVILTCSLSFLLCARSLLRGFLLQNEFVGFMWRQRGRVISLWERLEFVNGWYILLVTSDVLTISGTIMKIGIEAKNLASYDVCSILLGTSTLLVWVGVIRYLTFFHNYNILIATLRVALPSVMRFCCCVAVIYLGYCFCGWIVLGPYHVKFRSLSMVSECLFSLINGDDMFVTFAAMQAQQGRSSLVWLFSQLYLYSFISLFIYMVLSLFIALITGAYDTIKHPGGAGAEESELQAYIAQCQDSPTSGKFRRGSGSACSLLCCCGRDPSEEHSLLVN
#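 Tet-induced TRPML1-DL cells loaded with Ca8 no-wash calcium dye were read kinetically on FDSS. Compound addition was followed by EC80 agonist 54-4 (4 uM final); inhibition was read over 110 s.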
# TRPML1 ag: human mucolipin-1 channel agonism; activation, % (concentration not given with the values); Q9GZU1; AID 624414; 410,000 compounds, 0.12% hits; TRPML1-expressing cells, Ca2+ dye fluorescence, FDSS; host cell line not named in the record; reference of the full effect not given here; in the data active = activation above about 50%; inconclusive = about 30% to 50%; inactive = below about 30%; further: 0% is about no effect; the text of the record puts the active cut at 80%
#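 Tet-induced TRPML1-DL cells, 1,500 per well, cultured overnight, were loaded with a no-wash Ca2+ dye for 45–90 min. Calcium fluorescence was recorded on the FDSS for 110 s after compound addition, before the EC80 agonist (4 uM 54-4) was added.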
# gsp antag: antagonists of gsp mutant (McCune-Albright syndrome). Potency, µM (doses to about 76.9 µM), without a hit: at the highest dose activity change, negative = inhibition, usual class: inhibitors. gsp-mutant cells, cAMP HTRF, 30 min; control for the full effect not named in the record. 340,000 compounds, 0.4% hits; active = falling curve of any shape with a large fitted effect; inconclusive = falling curve, mostly with a smaller effect; inactive = flat or rising curve; cell line not stated here;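 further: intracellular cAMP measured with PDE inhibitor Ro 20-1724 present during compound exposure; potency means the concentration at half of the fitted maximal effect; on the % scale 0 is the no-effect control and ±100 the full control effect; nearly all actives have a fitted effect of over 65% in size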
#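 G418-selected cells were plated in DMEM/10% FBS for 16-24 h at 37C, then treated with compounds plus the PDE inhibitor […] (300 uM solution added) for 30 min at 37C. Intracellular cAMP was measured by HTRF after 30 min lysis at room temperature.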
# ClpP mod: qHTS Assay for Activators of ClpP. ATP-dependent Clp protease proteolytic subunit (Bacillus subtilis (strain 168)), P80244. purified B. subtilis ClpP, FRET peptide cleavage, 20 min. Potency, µM (highest dose often 57.5 µM), without a hit: top-dose activity change, negative = active. 340,000 compounds, 1.9% hits; active = well fitted falling curve with a large enough effect; inconclusive = small, poorly fitted or top-dose-only effect; inactive = no such curve, though single readings can be large or run the other way; further: potency means the concentration at half of the fitted maximal effect; the source files actives as falling curves though it sought activators and does not explain the sign; nearly all actives have a fitted effect of over 65% in size; many hits overshoot -100%
# Target sequence (P80244 whole entry, looked up): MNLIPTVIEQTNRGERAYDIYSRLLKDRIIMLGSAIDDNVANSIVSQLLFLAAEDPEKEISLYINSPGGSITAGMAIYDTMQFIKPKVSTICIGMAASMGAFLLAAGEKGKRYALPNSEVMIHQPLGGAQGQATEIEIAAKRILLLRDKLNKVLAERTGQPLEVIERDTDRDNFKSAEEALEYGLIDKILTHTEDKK
#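 FRET quenching reversal measured ClpP activation: 10 microg/mL B. subtilis ClpP at pH 8 with the FRET-FV decapeptide, read at 430 nm after 320 nm excitation. The 20-min minus 0-min signal was scaled between DMSO/no-enzyme wells and ADEP (5.8 microM final).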
# gsp agonist: activates gsp, the McCune-Albright syndrome mutation; 340,000 compounds, 0.13% hits; gsp mutant cells, cAMP HTRF, 30 min; control for the full effect not named in the record; Potency, µM (top dose mostly 76.9 µM), for inactives: at the top dose activation (cAMP increase), most hits filed as activators; active = well fitted activation curve with a large enough effect; inconclusive = small, poorly fitted or top-dose-only effect, or another doubt; inactive = no such curve, though single readings can be large or run the other way; cell line not stated here;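 further: phosphodiesterase inhibitor Ro 20-1724 added with compounds to block cAMP breakdown; potency means the concentration at half of the fitted maximal effect; nearly all actives have a fitted effect of over 60% in size; about a fifth of the inactives were tested at one dose only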
#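 Cells stably selected in G418 were plated at 2000/well, grown 16-24 hr, then given compounds in DMSO with the PDE inhibitor […] (300 uM solution added) for 30 min at 37C; cAMP was read by HTRF.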
# Menin MLL FP FL: inhibitors of human menin-MLL interaction, wild-type MLL peptide; Fluorescence polarization, fluorescein-MLL peptide displacement from menin; FP activity change, % at 61.4 µM; 290,000 tested, under 10 active; AID 1766; inconclusive = falling polarisation curve, or a change in total fluorescence; inactive = total fluorescence flat and polarisation flat or rising; no compound was filed as active; the % refers to the polarisation; negative = inhibition;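 further: % of control where 0% means no effect; inhibitors lower the polarisation; unlabelled MLL peptide was the positive control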
# An asterisk follows results filed as active; ? = inconclusive; · = no result given; & = joins results of further samples; [ ] = dose if it differs, or a comment.
# Every second line gives: ClpP mod	TRPML1 ag	gsp antag	TRPML1 blocker	gsp agonist	Menin MLL FP FL
- CC1(C)CC(=O)C(C=NCC2CCN(C(=S)Nc3cccc(Cl)c3)CC2)=C(O)C1
→ ·	0.5	-12%	-7	30%	3.9
- CC(C)NC(=O)c1ccccc1NC(=O)CCc1ccccc1
→ -5.3%	-1.0	6%	0	-42%[inhibitor]	-0.4
- O=S(=O)(c1cccc(-c2csc(-c3ccccc3)n2)c1)N1CCOCC1
→ -6.6%	0.0	-23%	-1	-6%	1.3
- COCCN(C(=O)COC(=O)CCc1ccccc1OC)c1c(N)n(Cc2ccccc2)c(=O)[nH]c1=O
→ 2.3%	0.6	-2%	-2	-19%	·
- O=S(=O)(NC1CCCC1)c1cc(F)ccc1F
→ -1.2%	0.3	8%	5	-43%[inhibitor]	·
- COc1ccc(S(=O)(=O)N2CC(C)N(S(=O)(=O)c3ccc(OC)cc3)CC2C)cc1 (configuration not stated)
→ 1.1%	-1.4	6%	-26	0%	0.8
- COC(=O)c1ccc(CSc2nc3ccc(S(=O)(=O)N4CCOCC4)cc3[nH]2)cc1
→ 2.7%	-0.9	-9%	12	11%	-0.8
- N#Cc1cccc(NC(=O)C2SC(=Nc3ccccc3)C(C(=O)N3CCOCC3)=C2N)c1 (configuration not stated)
→ ·	-0.6	-6%	23	-86%[inhibitor]	5.8
- CCn1nc(C)cc1C(=O)N1CCCC(CCC(=O)NCc2ccccc2F)C1 (configuration not stated)
→ -2.3%	-0.1	-4%	-28	-6%	-1.8
- CCCn1c(=O)c2sccc2n2c(CCCC(=O)Nc3cccc(CC)c3)nnc12
→ -2.7%	1.5	·	0	·	·
- Cc1ccc(-n2c(CNc3ccc(F)cc3)nnc2SCC(=O)N2CCOCC2)cc1
→ 0.4%	-0.9	-2%	-7	4%	-0.3
- O=C(c1ccc2ccccc2n1)N1CCN(c2ccccc2O)CC1
→ -12%	-0.1	-11%[15.4 µM]	-5	19%	0.1
- COc1ccc(-n2c(O)c(C=Nc3ccccc3)c3ccccc3c2=O)cc1OC
→ ·	0.3	6%	44	8%[15.4 µM]	-0.1
- COc1ccc(N2COC3c4cccc5cccc(c45)C32)cc1 (configuration not stated)
→ 7.3%	0.4	-14%	8	-39%	4.4
- O=C(O)Cc1csc(NC(=O)CSc2nnnn2-c2ccc(O)cc2)n1
→ 1.7%	0.1	11%	7	-10%	-1.7
- O=S(=O)(c1ccccc1)N1CN(c2ccc(F)cc2F)c2nc3ccccc3nc21
→ 1.9%	-0.2	-19%	8	-4%[15.4 µM]	·
- CC(NC(=O)C1CCN(C(=O)[C@@H]2Cc3ccccc3CN2)CC1)c1ccccc1 (some centres not stated)
→ -3.0%	0.1	8%	-16	5%	0.6
- O=C1Nc2ccccc2N=C(c2ccccc2)c2ccccc21
→ ·	0.1	-17%	-1	-5%[15.4 µM]	2.2
- O=S(=O)(NCCN1CCOCC1)c1cccc(C(F)(F)F)c1
→ 1.1%	1.2	-6%	16	-9%	0.9
- O=C1C=C(NC2CCCC2)CC(c2ccccc2)C1 (configuration not stated)
→ ·	0.4	11%	-3	25%[15.4 µM]	0.6
- CC(=O)N1N=C(c2ccc(C)o2)CC1c1ccc(F)cc1 (configuration not stated)
→ -12%	0.8	-1%	-6	?	2.9
- Cc1nc(SCC(=O)Nc2ccc(F)cc2)c2oc3ccccc3c2n1
→ 0.1%	6.1	40%[activator]	19	15%	3.9
- CN(Cc1nc(-c2cccnc2)no1)S(=O)(=O)c1ccccc1
→ 0.4%	0.3	2%	8	-12%	3.2
- Cc1ccc(-c2noc(CSc3ccccc3)n2)cc1
→ -0.3%	1.9	5%	-1	-2%	1.9
- O=S(=O)(c1ccc(-c2cc(C(F)(F)F)on2)s1)N1CCCC1
→ -0.1%	-0.6	15%	-14	-2%[15.4 µM]	7.3
- CCc1ccc(/C=C2\Oc3cc(OS(C)(=O)=O)ccc3C2=O)cc1
→ -3.3%	1.0	3%	9	-9%	4.7
- CCC1Sc2ccc(S(=O)(=O)Nc3cc(OC)cc(OC)c3)cc2NC1=O (configuration not stated)
→ 0.1%	0.4	2%	-2	-3%	·
- CN(C)S(=O)(=O)c1ccc(C(=O)Nc2ccc(F)cc2F)cc1
→ -1.4%	-0.4	1%	9	-10%	-0.7
- COc1cccc(NC(=O)C2CCN(c3cnccn3)CC2)c1
→ ·	-0.6	1%	58	-16%[15.4 µM]	-0.6
- COC(=O)c1ccc(NC(CC(C)C)C(=O)OC)c([N+](=O)[O-])c1 (configuration not stated)
→ 1.2%	1.6	-15%	22	6%	3.7
- CC(C)(C)c1ccc(CC(=O)N2CCC2(C)C(=O)NS(=O)(=O)c2ccc3c(c2)CCO3)cc1 (configuration not stated)
→ -0.7%	-0.8	·	-6	·	·
- Cc1nn(C)cc1/C=N/NC(=O)Cn1cncn1
→ ·	0.2	19%	-9	6%[15.4 µM]	8.2
- O=C(c1ccc(=O)[nH]c1)N1CCCc2ccccc21
→ -1.1%	·	-20%	·	?	3.6
- N#Cc1cccc(C(=O)N(CCc2ccccc2)Cc2cccs2)c1
→ ·	0.5	-14%	7	3%	-3.8
- CCN(CC)c1ccc(C(=O)OCC(=O)Nc2cc3oc4ccccc4c3cc2OC)cc1
→ ·	0.1	-6%	-6	-43%[15.4 µM]	-0.9
- O=C(c1ccc(S(=O)(=O)NCC2CCCO2)cc1)N1CCN(c2cccc(Cl)c2)CC1 (configuration not stated)
→ 1.5%	1.7	?	-6	-37%[inhibitor]	-2.6
- O=C(c1cc(S(=O)(=O)N2CCN(c3ccccc3)CC2)ccc1Cl)N1CCCC(C(F)(F)F)C1 (configuration not stated)
→ -1.9%	1.1	-5%	19	?	·
- CCc1cccc(C)c1NC(=O)C1CCN(c2nn3c(=O)cc(C)nc3s2)CC1
→ -4.0%&-0.3%	0.9&-0.8	4%	-17&-24	?	·
- NC(=O)C1(N2CCCCC2)CCN(Cc2nc(-c3cccs3)no2)CC1
→ -1.2%	-0.6	6%	-9	14%	0.5
- COc1ccc(NC(=O)Cn2c(=O)ccc3cc(S(=O)(=O)N4CCCC4)ccc32)cc1Cl
→ -3.7%	1.0	·	40	·	·
- CC(/C=C/c1ccccc1)=N\Nc1nc(C)cc(C)n1
→ -0.3%	0.9	1%	-22	10%	3.2
- CC(C)C(NC(=O)c1ccccc1)C(=O)N1CCCCCC1 (configuration not stated)
→ ·	1.0	7%	6	22%	-5.1
- Cc1ccc(S(=O)(=O)N2CCOC2CNC(=O)C(=O)NCCN2CCOCC2)cc1 (configuration not stated)
→ 0.6%	0.0	5%	15	-8%[15.4 µM]	·
- C(=N\Nc1nc(-c2ccccc2)cs1)/c1ccncc1
→ ·	0.3	-5%	-11	-19%[15.4 µM]	-1.1
- O=C(c1cc([N+](=O)[O-])ccc1N1CCCC1)N1CCCCC1
→ ·	1.5	5%	4	-2%[15.4 µM]	5.6
- C=CCN(c1ccccc1OC)S(=O)(=O)c1ccc(Cl)c(C(=O)NCc2ccco2)c1
→ -2.2%	0.7	·	9	-59%[inhibitor]	·
- CC(=O)OC1CCC2(C)C(CCC3C2CC(=O)C2(C)C3CC(C3CCCC3=O)C2C(C)=O)C1 (configuration not stated)
→ ·	1.3	?	-2	?	·
- CC(C)(C)NCC(O)COc1cccc2c1CCC(=O)N2 (configuration not stated)
→ 1.1%	0.5	6%	16	·	·
- Cc1cc(NC(=O)CN(C)CC(=O)Nc2ccc(Cl)cc2)no1
→ 1.6%	-1.2	-4%	-4	-1%	·
- O=C(CSc1nc(=O)n2cc(Cl)ccc2n1)Nc1ccc2c(c1)OCCO2
→ -0.8%	-0.7	5%	9	?	·
- CCOC(=O)c1cc2c(c(CSc3nc4ccccc4c(=O)n3Cc3ccco3)c1)OCOC2
→ -0.5%	-0.2	-10%	-9	-3%	5.0
- Cc1ccccc1OCCC(=O)OCC(=O)NCCc1ccc(S(N)(=O)=O)cc1
→ 0.8%	-0.4	7%	-10	30%	·
- CSc1ncc(C(=O)Nc2cc(C)cc(C)c2)c(-c2ccccc2)n1
→ -4.2%	3.9	·	12	·	·
- CN(c1ccc(OCC(=O)OCC(=O)Nc2ccc(F)cc2)cc1)S(=O)(=O)c1ccc(Cl)cc1
→ 0.2%	-0.2	7%	10	14%[15.4 µM]	0.4
- COc1ccc(NC(=O)Nc2c(SC)nsc2SC)cc1
→ ·	1.5	10%	11	12%[15.4 µM]	-5.6
- COc1ccc(N(CC(=O)NC2CCCCCC2)S(=O)(=O)c2ccc(C)cc2)cc1OC
→ 1.6%	-0.5	4%	8	-10%	·
- CCNC(=O)CCCOc1ccc(Cl)cc1Cl
→ -0.9%	-0.1	-2%	0	3%	0.3
- CCCCn1c(N)c(N(CCC(C)C)C(=O)CCCc2nc3ccccc3s2)c(=O)[nH]c1=O
→ -1.7%	-0.4	-8%	-4	-3%	0.0
- COc1cc(/C=N/NC(=O)C(=O)/C=C2\NC3(CCCC3)Cc3ccccc32)ccc1O
→ -2.1%	2.5	-26%	-2	?	3.5
- NS(=O)(=O)c1ccc(NC(=O)CSc2nnc3n2CCCCC3)cc1
→ -1.8%	-0.9	5%	25	?	·

# Other entries.
# Every second line gives: ClpP mod	TRPML1 ag	gsp antag	TRPML1 blocker	gsp agonist	Menin MLL FP FL
- CCN1C(=O)c2ccc(-c3nc4ccccc4c(=O)o3)cc2C1=O
→ ?	1.3	7%	-5	-14%	-0.3
- CC(=O)Nc1ccc(Nc2nc(-c3c(C)nc4ccccn34)cs2)cc1
→ -18%	0.8	9%	3	4%	·
- Cn1c(=O)n(Cc2ccccc2)c(=O)c2c1nc(NCC1CCCO1)n2Cc1ccccc1 (configuration not stated)
→ -2.1%	1.5	-5%	4	18%	-0.5
- CCOc1ccc(NC(=O)C2CCN(C(=O)C3CC(=O)N(c4ccc(C)cc4)C3)CC2)cc1 (configuration not stated)
→ ·	0.3	1%	1	-1%	7.1
- CCc1ccc(NC(=O)CN(c2ccc(OC)cc2)S(=O)(=O)c2c(C)nn(C)c2C)cc1
→ 0.6%	0.1	-19%	24	?	·
- O=C(CCN1CCN(c2ccccc2)CC1)NNC(=O)Cc1ccc(Br)cc1
→ ·	0.9	10%	4	27%[15.4 µM]	·
- Cc1noc(NS(=O)(=O)c2ccc(N3Cc4ccccc4C3=O)cc2)c1C
→ 0.0%	-0.4	38%[activator]	-7	?	9.4
- CCn1cc(S(=O)(=O)N2CCN(Cc3cccc(Cl)c3)CC2)cn1
→ ·	1.7	·	-7	-7%[15.4 µM]	-0.4
- O=C(Nc1cccc(O)c1)c1ccc(NC(=O)c2cccs2)cc1
→ -2.4%	-0.2	-24%	-10	-27%	·
- CCCCn1nc(C(=O)Nc2cc(C(F)(F)F)ccc2N2CCOCC2)ccc1=O
→ 1.9%	?	-24%	2	8%	·
- Cc1cccc(C)c1-n1c(C)cc(/C=N\NC(=O)CC(=O)NC2CCCCC2)c1C
→ -6.0%	-0.5	11%	?	-17%	1.9
